Bioassay records deposited in PubChem by National Center for Advancing Translational Sciences (NCATS).
HPGD inh: HPGD (human) dehydrogenase inhibition; 150,000 tested, 4.3% active; purified HPGD, NADH fluorescence kinetic, PGE2 substrate; Potency, µM, for inactives: at the highest dose activity change, negative = inhibition, hits mostly inhibitors; AID 894; P15428; active = well fitted inhibition curve with a large enough effect (not every such curve was filed as active); inconclusive = small, poorly fitted or top-dose-only effect, or another doubt; inactive = no such curve, though single readings can be large or run the other way;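 further: top concentration of the series not given in the record; plate controls included wells without enzyme; inactives centre near -10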
Target sequence (P15428 whole entry, looked up): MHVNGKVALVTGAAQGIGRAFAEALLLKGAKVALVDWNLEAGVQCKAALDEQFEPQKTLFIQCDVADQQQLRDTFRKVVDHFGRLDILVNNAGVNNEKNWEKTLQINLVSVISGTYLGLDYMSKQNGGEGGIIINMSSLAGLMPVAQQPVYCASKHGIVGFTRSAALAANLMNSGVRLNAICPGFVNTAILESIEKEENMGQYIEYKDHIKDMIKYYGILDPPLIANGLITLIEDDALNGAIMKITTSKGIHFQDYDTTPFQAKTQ
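20 nM HPGD preincubated 15 min at room temperature with compound in 50 mM Tris-HCl pH 8, 0.01% Tween 20. Started with 1 mM NAD+ and 30 uM prostaglandin E2; NADH fluorescence (360/450 nm) read 5 times over 30-s intervals, last minus first.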
Numbers without * were called inactive; ? = inconclusive; & = joins results of further samples. On the % scale 0 is the no-effect control and ±100 the full control effect; potency means the concentration at half of the fitted maximal effect.

SMILES	HPGD inh
O=C(O)Cc1cccnc1C(=O)O	-3%
CCOC(=O)C1=C(N)OC2=C(C(=O)CC(C)(C)C2)C12C(=O)Nc1ccccc12 (stereo not given)	-10%
CN1CC(C(=O)c2ccccc2)C(C(=O)c2ccccc2)C1 (stereo not given)	-21%
NNC(N)=S	-4%
CC(C)Sc1nnc([C@@H](N)Cc2c[nH]c3ccccc23)o1	-17%
CS/C(N)=C(C#N)/C(C#N)=C(\N)SC	?
Cc1ccc(-n2c(O)c(/C=N/N3CCOCC3)c(=O)[nH]c2=S)cc1	-27%
Cn1c(C(=O)N2CCC3(CC2)OCCO3)cc2c(=O)n(C)c3ccccc3c21	-19%
Cc1ccc(CN2C(=O)NC(=O)C3(Cc4c(nc5ccccn5c4=O)N4CCCCCC43)C2=O)cc1 (stereo not given)	-21%
CCCCC[C@@H](/C=C/C=C\CCCCCCCCCC(=O)O)OO	-5%
C[C@]12C/C(=C/O)C(=O)C[C@@H]1CC[C@@H]1[C@@H]2CC[C@@]2(C)[C@H]1CC[C@]2(C)O	-6%
c1ccc(CN2CCC3(CCNCC3)CC2)cc1	5%
COc1ccc(CCn2c(O)c(/C=N/N3CCCCC3)c(=O)[nH]c2=O)cc1OC	-15%
COc1cc2c(cc1C=O)OCO2	?
N=C1c2ccccc2CN1NC(=O)c1ccc(Cl)cc1	-14%
CN(C)C(=S)SSC(=S)N(C)C	0.71µM*
Cc1o[nH]c(=O)c1C[C@@H](N)C(=O)O	1%
C[C@H]1CC[C@@]2(NC1)O[C@@H]1C[C@H]3[C@@H]4CC=C5C[C@@H](O)CC[C@]5(C)[C@@H]4CC[C@]3(C)[C@@H]1[C@@H]2C	-1%
Nc1ccc(Cl)cc1	-5%
CCOC(=O)C1CCN(/C=C2/C(=O)NC(=O)N(Cc3ccco3)C2=O)CC1	-14%
NC1=NC([S][Hg][c]2ccc(N)cc2)c2ncn([C@@H]3O[C@H](CO)[C@@H](O)[C@@H]3O)c2N1 (stereo not given in full)	0.05µM*
Cc1c(N=Cc2c(O)n(CCc3ccccc3)c(=O)[nH]c2=O)c(=O)n(-c2ccccc2)n1C	-19%
CC(C)(C)OC(=O)N1CC[C@H]1COc1cnc[c]([Sn]([CH3])([CH3])[CH3])c1	1%
O=c1ccc2cc(O[C@H]3O[C@@H](CO)[C@@H](O)[C@@H](O)[C@@H]3O)c(O)cc2o1	?
O=C1NC(=O)N(Cc2ccccc2Cl)C(=O)/C1=C/N1CCOCC1	-18%
More compounds
SMILES	HPGD inh
Brc1ccc2c(c1)C(OC1CN3CCC1CC3)c1ccccc1CS2 (stereo not given)	2%
CCCC12CN3CN(C1)CC(CCC)(C3)C2O (stereo not given)	-1%
Cc1cc(S(=O)(=O)NC(C)C)ccc1OCC(=O)N1CCN(Cc2ccc3c(c2)OCO3)CC1	-9%
CC[C@H]1CN2CC[C@@H]1C[C@H]2[C@@H](O)c1ccnc2ccc(OC)cc12	?
O=C(O)C(Br)Br	-15%
C=C1[C@@H](O)C2C=CC[C@H](C)C(=O)[C@@](C)(O)C=C[C@@H](OC(C)=O)[C@@]23C(=O)N[C@H](Cc2ccccc2)[C@@H]3[C@@H]1C (stereo not given in full)	-16%
CC(C)CC(C)N (stereo not given)	-1%
N[C@@H](Cc1ccccc1)P(=O)(O)O	-6%
Cc1ccc(/C=C2/C(=O)NC(=O)N(CCc3ccc(F)cc3)C2=O)o1	3.5µM*
C=C1CC[C@@]2(O)[C@H]3Cc4ccc(O)c5c4[C@@]2(CCN3CC2CC2)[C@H]1O5	4%
COc1ccc(S(=O)(=O)NC(CC(=O)N2CCC3(CC2)OCCO3)C(C)C)cc1 (stereo not given)	-10%
COc1cc(C(=O)Nc2ccc(Br)cc2C(=O)c2ccccc2Cl)cc(OC)c1OC	-7%
CC1CN(CCc2ccccc2)CC(C)O1 (stereo not given)	-14%
CC1=C(C(=O)OC(C)C)[C@]2(C(=O)N(CC(N)=O)c3ccccc32)C(C#N)=C(N)O1	-8%
O=c1[nH]c(=O)n(CCc2ccc(F)cc2)c(O)c1C=NCCCn1ccnc1	-9%
CCCCCOC(=O)c1ccccc1C(=O)OCCCCC	-4%
COCCCNC(=O)c1c(NC(=O)c2ccccc2Cl)n(Cc2ccccc2)c2nc3ccccc3nc12	-26%
Cc1ccnc(-n2c(C)nc3ccccc3c2=O)c1	-7%
CC1C(c2cccs2)=[N+]([O-])C(C)(C(=O)c2cccs2)N1O (stereo not given)	-5%
COC(=O)CN1CN(c2ccccc2)C2(CCN(Cc3ccc4ccccc4c3)CC2)C1=O	-4%
O=c1c2ccccc2nc(CSc2ncnc3nc[nH]c23)n1-c1ccccc1Cl	-11%
CC(=O)OC(C)(C)/C=C/C(=O)[C@](C)(O)[C@H]1[C@H](O)C[C@@]2(C)[C@@H]3CC=C4[C@H](C[C@H](O)C(=O)C4(C)C)[C@]3(C)C(=O)C[C@]12C	-11%
CSSC	-5%
COC(=O)c1ccc(NC(=O)CSc2nc3ccc(N4C(=O)C5C6C=CC(C6)C5C4=O)cc3s2)cc1 (stereo not given)	-22%
COc1ccccc1N1CCN(C(CNC(=O)Oc2ccccc2)c2cccnc2)CC1 (stereo not given)	-9%
Later entries.
SMILES	HPGD inh
CCOc1ccc(N)cc1	-1%
CC1=CC[C@@H]2[C@@H](C1)c1c(O)cc(CC#CCCCNS(C)(=O)=O)cc1OC2(C)C	-16%
NCCCN1CCN(c2ccccc2)CC1	-5%
C[C@]12CCC(=O)C=C1CCc1ccc(O)cc12	-4%
C[C@H]1C(=O)O[C@@H]2CCN3CC=C(COC(=O)[C@@](C)(O)[C@@]1(C)O)[C@H]23	-4%
N[C@@H](Cc1cc(Br)c(O)c(Br)c1)C(=O)O	-12%
CN(C)c1ccc(NC(=O)CN2C(=O)CN=C(c3ccccc3)c3cc(Cl)ccc32)cc1	-5%
CC(=O)Oc1ccc(Cl)c2cccnc12	-7%
O=C(COc1ccccc1)Nc1ccc(Cl)cc1C(=O)c1ccccc1	-7%
O=C1/C(=C/c2cccc([N+](=O)[O-])c2)N2CCC1CC2	-7%
COc1cccc(N2C(=O)CC(=O)NC2=O)c1	-6%
COc1cccc(-n2c(O)c(C=NCCN3CCOCC3)c(=O)[nH]c2=O)c1	-5%
COc1ccccc1-n1c(O)c(C=NCCCn2ccnc2)c(=O)[nH]c1=O	-5%
O=C(COc1ccc2ccccc2c1)N1CCN(CC2CC3C=CC2C3)CC1 (stereo not given)	-2%
C[n+]1ccc(-c2ccncc2)cc1	-7%
O=C1CSC2N1CCNC21CCCCC1 (stereo not given)	-7%
Cn1cc(C(=O)N2CCC3(CC2)OCCO3)c2c3ccccc3n(C)c2c1=O	?
CCCCOc1nc2ccccc2c(=O)n1-c1ccccc1	-13%
CC(C)OC(=O)Cc1ccccc1	-3%
COc1ccccc1N1CCN(Cc2cc(C)c(C)cc2O)CC1	-2%
COc1ccc(C[C@H]2c3cc(OC)c(OC)cc3CCN2C)cc1OC	-8%
N[C@@H](Cc1c[nH]c2ccccc12)c1nnc(SCc2c(F)cccc2Cl)o1	-3%
Cc1ccc(-c2nc3ccccc3c(=O)n2-c2cccnc2)cc1	-2%
Cn1c(=O)n(CC(=O)N2CCC3(CC2)OCCO3)c(=O)c2ccccc21	-19%
CC(Cc1ccccc1Sc1ccccc1)N(C)C (stereo not given)	0%

An excerpt from above in order of number of heavy atoms, ascending.
SMILES	HPGD inh
CCOc1ccc(N)cc1	-1%
CCCCOc1nc2ccccc2c(=O)n1-c1ccccc1	-13%
COc1cccc(-n2c(O)c(C=NCCN3CCOCC3)c(=O)[nH]c2=O)c1	-5%

Other results follow.
SMILES	HPGD inh
CCOC(=O)[C@]1(C#N)[C@@H]2C=CC(C(C)=O)=CN2[C@@H](C(N)=O)[C@@H]1c1ccsc1	-25%
CC1(C)C(C=C(Cl)Cl)C1C(=O)OC(C#N)c1cccc(Oc2ccccc2)c1 (stereo not given)	-3%
CC(C)[C@@]1(NC(=O)[C@@H]2C[C@@H]3c4cccc5[nH]cc(c45)C[C@H]3N(C)C2)O[C@@]2(O)C3CCCN3C(=O)[C@H](Cc3ccccc3)N2C1=O (stereo not given in full)	-22%
CCCCC/C=C\C/C=C\C/C=C\CCCCC(=O)NCCc1ccc(O)c(O)c1	-3%
Cc1ccc(-c2nc(N(C)C3CCN(C)CC3)c3ccccc3n2)cc1	-12%
CC(N)[C@H](O)c1ccccc1 (stereo not given in full)	0%
O=Cc1cn(Cc2cccc(F)c2)c2ccccc12	-4%
CCCCC/C=C\C/C=C\C/C=C\C/C=C\CCCC(=O)N(Cc1ccc(O)c(Cl)c1)Cc1ccc(O)c(Cl)c1	-3%
NCc1cc(=O)[nH]o1	-11%&3%
O=[N+]([O-])c1c2ccccc2cc2ccccc12	-7%
O=C(Nc1ccc(F)cc1F)c1cccnc1Oc1cccc(C(F)(F)F)c1	-11%
CC(C)N(CC#CCC1(O)c2ccccc2-c2ccccc21)C(C)C	-9%
CCC1(CCSC(=N)N)C(=O)NC(=O)NC1=O	-5%
Cc1ccc(-n2c(O)c(C=NC3CCCC3)c(=O)[nH]c2=O)c(C)c1	-3%
CN1C(=O)COc2c(C(=O)N[C@@H]3CN4CCC3CC4)cc(Cl)cc21	1%
O=C(C1CCN(S(=O)(=O)N2CCOCC2)CC1)N1CCC2(CC1)OCCO2	-12%
O=[P+](Cc1ccccc1)Cc1ccccc1	-28%
CCCCn1c(O)c(C(CC)=NCCc2ccccc2)c(=O)[nH]c1=O	-12%
NCC(N)C(=O)c1ccccc1 (stereo not given)	-17%
CCC(=NCCCN1CCOCC1)c1c(O)n(Cc2ccccc2)c(=O)[nH]c1=O	?
Clc1ccccc1Cl	-3%
CCOC(=O)CC1=C(C(=O)OCC)C2(C(=O)N1CC(=O)OC)C(C#N)=C(N)Oc1ccccc12 (stereo not given)	-9%
C[C@]12CCC3C(C=CC4=CC(=O)CC[C@]43C)C1CC[C@]2(O)CCC(=O)O (stereo not given in full)	-17%
Cc1c2cnn(CC(=O)N3CCC4(CC3)OCCO4)c(=O)c2c(C)n1Cc1ccccc1	-10%
CCCCCc1nc2ccccc2c(=O)n1-c1ccc(Cl)cc1[N+](=O)[O-]	-8%
CC(=O)Nc1cc(C(=O)N2CCC3(CC2)OCCO3)ccc1Sc1ccc(C)cc1	-10%
Cc1nc2c(-c3ccc(F)cc3)c(C)nn2c(C)c1CCC(=O)N1CCC2(CC1)OCCO2	-9%
C/C=C/C=O	-4%
CCOC(=O)c1c(C)n(Cc2ccco2)c2ccc(O)cc12	22µM*

In the list so far, these have an NH in an aromatic ring.
SMILES	HPGD inh
CC(C)Sc1nnc([C@@H](N)Cc2c[nH]c3ccccc23)o1	-17%
Cc1ccc(-n2c(O)c(/C=N/N3CCOCC3)c(=O)[nH]c2=S)cc1	-27%
COc1ccc(CCn2c(O)c(/C=N/N3CCCCC3)c(=O)[nH]c2=O)cc1OC	-15%
Cc1o[nH]c(=O)c1C[C@@H](N)C(=O)O	1%
Cc1c(N=Cc2c(O)n(CCc3ccccc3)c(=O)[nH]c2=O)c(=O)n(-c2ccccc2)n1C	-19%
O=c1[nH]c(=O)n(CCc2ccc(F)cc2)c(O)c1C=NCCCn1ccnc1	-9%
O=c1c2ccccc2nc(CSc2ncnc3nc[nH]c23)n1-c1ccccc1Cl	-11%
COc1cccc(-n2c(O)c(C=NCCN3CCOCC3)c(=O)[nH]c2=O)c1	-5%
COc1ccccc1-n1c(O)c(C=NCCCn2ccnc2)c(=O)[nH]c1=O	-5%
N[C@@H](Cc1c[nH]c2ccccc12)c1nnc(SCc2c(F)cccc2Cl)o1	-3%
CC(C)[C@@]1(NC(=O)[C@@H]2C[C@@H]3c4cccc5[nH]cc(c45)C[C@H]3N(C)C2)O[C@@]2(O)C3CCCN3C(=O)[C@H](Cc3ccccc3)N2C1=O (stereo not given in full)	-22%
NCc1cc(=O)[nH]o1	-11%&3%
Cc1ccc(-n2c(O)c(C=NC3CCCC3)c(=O)[nH]c2=O)c(C)c1	-3%
CCCCn1c(O)c(C(CC)=NCCc2ccccc2)c(=O)[nH]c1=O	-12%
CCC(=NCCCN1CCOCC1)c1c(O)n(Cc2ccccc2)c(=O)[nH]c1=O	?

Not all compounds are listed; rates above refer to the full screens.
